Bfl-1 A1 inh: caspase 3/7 activation in MEF A1-2A-BIM cells, primary screen, A1 inhibitor project, cell-based, luminescence, HTS; Caspase-Glo 3/7 luminescence, 3 h; percent of clofoctol response, vehicle zero; 330,000 compounds, 0.066% hits; caspase activation, % (no concentration beside the values);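 active = over half of replicate activation scores above 10%, or exactly half above 10 with the replicate mean above 10; inconclusive = replicate mean below 10 yet half the replicates above 10; inactive = over half of replicates below 10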;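 note: wells of about 30 µL received 50 nL stock; many hits fall short of the cut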
Beta apoptosis: inhibitors of cytokine-induced beta cell apoptosis, primary screen, luminescence; INS-1E cytokine-induced death, ATP luminescence, 48 h; percent of positive-control rescue, neutral wells zero; protection from apoptosis, % (concentration not given with the values); 300,000 compounds, 0.8% hits; AID 435005, 2010;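 active = all replicates at 75% or more, or half of them and the mean; inconclusive = half reach 75% but not the mean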;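 note: 0% = cytokine-treated negative control wells and 100% = positive control rescue; higher means more ATP so stronger rescue from cytokine killing; wells of about 40 µL received 100 nL stock; the first replicate is given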
B2AR ag: beta2AR agonists driving receptor internalization, primary screen, cell-based, FAP fluorogen, flow cytometry; 340,000 compounds, 0.43% hits; AID 504454, 2011; response, % (no concentration beside the values); Am2.2-beta2AR cells; reference of the scale not given here; Beta-2 adrenergic receptor (Homo sapiens), P07550;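 active = response above a set limit, near 3 SD of response in nonfluorescent compounds, cut at about 42% in these data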;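 note: stock transfer was 100 nL into about 11 µL; a reference agonist was the positive control; negative values mostly stem from fluorescent compounds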
Target sequence (P07550 whole entry, looked up): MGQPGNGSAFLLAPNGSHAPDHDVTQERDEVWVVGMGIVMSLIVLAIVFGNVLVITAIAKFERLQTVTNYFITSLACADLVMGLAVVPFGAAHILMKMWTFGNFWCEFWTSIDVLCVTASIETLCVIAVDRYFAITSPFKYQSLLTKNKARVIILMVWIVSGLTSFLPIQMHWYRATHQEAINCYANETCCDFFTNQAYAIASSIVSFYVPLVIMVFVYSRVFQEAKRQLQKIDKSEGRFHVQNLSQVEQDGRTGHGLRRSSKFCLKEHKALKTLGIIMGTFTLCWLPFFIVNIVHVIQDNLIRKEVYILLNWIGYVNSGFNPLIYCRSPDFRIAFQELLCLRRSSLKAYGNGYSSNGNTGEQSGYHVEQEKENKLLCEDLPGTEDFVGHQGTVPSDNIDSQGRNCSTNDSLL
Ecoli rRNA inh: reduced GFP signal of wild-type E. coli, primary screen, bacterial rRNA inhibitor project, GFP/RFP fluorescence, OD600, single point. E. coli WT GFP vs humanized-ribosome RFP mutants, 24 h; stronger effect = lower value; DMSO median 0, no signal -100. GFP signal change (wild-type ribosome), % (no concentration beside the values). 350,000 compounds, 1.6% hits. AID 720706, 2013;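 active = significant combined selectivity score with lowered wild-type GFP, culture density cut under 30%, mutant RFP and density less affected; inactive = any of these conditions unmet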; note: one replicate is shown; some compounds called inactive have numbers as strong as hits
LANA-H2A inh: blockers of LANA interaction with H2A/H2B – biochemical, FP readout, HTS, primary screen; Protein LANA1 (Human herpesvirus 8 type P (isolate GK18)), Q9QR71; cell-free LANA-H2A/H2B peptide, fluorescence polarization; inhibition, % (concentration not given with the values); 320,000 compounds, 0.6% hits; AID 2629, 2010; in the data active = inhibition mostly above about 10%, no sharp cut-off; inactive = mostly below about 6.7%;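 note: stock transfer was 7.5 nL into about 10 µL; 0% = median of vehicle wells and 100% = median of positive control wells; one replicate is shown; the record names a cut of 25% in any replicate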
T cruzi inh: inhibitors of intracellular T. cruzi growth, primary screen, luminescence, NIH3T3 host cells. 300,000 compounds, 1.4% hits. T. cruzi beta-gal in NIH3T3, 90 h. inhibition, % (test concentration not listed);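 active = mean inhibition across valid replicates above about 55%, limit read from the data; inconclusive = mean below that limit but half or more replicates reach it; inactive = mean below it, under half of replicates reach it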;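 note: signal also drops with host cell toxicity which is not excluded here; 0% = plate median of DMSO wells and 100% = zero luminescence signal; higher percent means less beta-gal luminescence so fewer parasites; stock transfer was 50 nL into about 50 µL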
ALR H2O2 inh: inhibitors of human ALR sulfhydryl oxidase, primary screen, biochemical, H2O2 detection, HRP-luminol luminescence, single point. FAD-linked sulfhydryl oxidase ALR (Homo sapiens), P55789. purified ALR, DTT oxidation. inhibition, % (no concentration beside the values). 290,000 compounds, 3.8% hits. AID 485317, 2010;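 active = mean and each replicate at 75% or more; inconclusive = only one of the two met; inactive = neither met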;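 note: stock transfer was 7.5 nL into about 7.5 µL; 0% = neutral wells and 100% = wells with inactivated enzyme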
Target sequence (P55789 whole entry, looked up): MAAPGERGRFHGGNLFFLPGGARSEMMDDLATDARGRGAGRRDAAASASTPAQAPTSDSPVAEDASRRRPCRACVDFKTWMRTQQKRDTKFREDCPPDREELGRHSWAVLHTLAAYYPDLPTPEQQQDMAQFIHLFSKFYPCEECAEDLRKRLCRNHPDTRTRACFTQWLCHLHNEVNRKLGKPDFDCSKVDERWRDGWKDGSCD
Calb FLC: C. albicans growth inhibition with fluconazole, primary screen, CaCi-2 strain, Alamar Blue fluorescence; C. albicans CaCi-2 (fluconazole-resistant clinical isolate) + fluconazole, 48 h; growth inhibition, % (no concentration beside the values); 300,000 compounds, 0.57% hits;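 active = most replicates above 75%; inconclusive = exactly half above 75%; inactive = most below 75%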;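 note: all wells also contain fluconazole at 8 µg/ml as a sub-toxic cotreatment; 0% = median of DMSO wells and 100% = median of geldanamycin control wells; wells of about 8 µL received 7.5 nL stock; the first replicate is given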
Ecoli rRNA inh OD600: recorded beside Ecoli rRNA inh, whose call it bears; OD600 change, %; measured here: OD600 growth;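 optical density of the mix in the first replicate; 0 = DMSO median and -100 = no signal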
Ecoli rRNA inh RFP: recorded beside Ecoli rRNA inh, whose call it bears; RFP signal change, %; measured here: RFP humanized mutant strains;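 first replicate; 0 = DMSO median and -100 = no signal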
An asterisk follows results filed as active; ? = inconclusive; / = no result given. A portion of the library; rates above refer to the full screens.

SMILES	Bfl-1 A1 inh	Beta apoptosis	B2AR ag	Ecoli rRNA inh	Ecoli rRNA inh OD600	Ecoli rRNA inh RFP	LANA-H2A inh	T cruzi inh	ALR H2O2 inh	Calb FLC
CC(C)CC1CC(C)(c2csc(NNC(=O)c3ccccc3)n2)OC1=O (configuration not stated)	-1.5	4	-5	11	10	5.1	-3.8	5	51	-14
CSc1ccc(CNc2ccccc2)cc1	-0.5	-17	/	/	/	/	0.5	-8	90*	-13
Cc1cc(C(=O)CSc2nnc(-c3ccccc3)n2C)c(C)n1C	-0.1	-8	-10	/	/	/	4.4	7	6	3
Cc1ccc(-n2[nH]c(C)c(C=NC34CN5CN(CN(C5)C3)C4)c2=O)cc1C	-2.1	12	1	/	/	/	-5.3	-18	46	-8
CCOc1ccc(-c2cc(C(=O)NCC3CCCO3)c3ccccc3n2)cc1 (configuration not stated)	1.0	1	-4	/	/	/	3.9	0	-7	12
COc1ccc(OC)c(Nc2nc(-c3ccncc3)nc3ccccc23)c1	0.6	13	2	10	4	1.1	7.7	47	-4	4
O=C(CSc1nnc2ccccn12)NNC(=O)c1ccc(F)cc1	0.6	1	-2	15	9	-4.6	-8.9	-10	-3	18
O=C(N/N=C/c1ccncc1)c1nn(Cc2ccccc2)c(=O)c2ccccc12	0.9	-9	0	9	13	1.7	1.8	-3	/	28
N#Cc1c(C(F)(F)F)cc(-c2ccco2)nc1SCc1ccccn1	0.0	/	-45	/	/	/	-0.2	19	-5	-3
O=C(Nc1ccc2nsnc2c1)c1cccs1	-0.7	-7	-5	/	/	/	3.5	-12	-9	0
O=C1CN(c2ccc(F)cc2)C(=S)N1c1ccccc1	0.3	-11	-2	6	4	2.4	-3.9	1	0	22
CN1CCN(CC(=O)N2c3ccccc3C(=O)Nc3cccnc32)CC1	0.3	-13	/	/	/	/	1.9	-7	/	/
Cc1ccc(C)c(S(=O)(=O)N2CCN(Cc3ccc(O)c4ncccc34)CC2)c1	0.1	87*	-4	-58	-75	-19	-3.2	-5	-1	110*
COc1ccc(CNCc2cc3c(C(C)(C)C)nn(-c4ccccc4)c3[nH]c2=O)cc1	0.5	-6	-6	/	/	/	-6.1	9	-6	-13
Cc1nn(C)c(C)c1CCC(=O)N1CCCC(Nc2ccc(C(C)C)cc2)C1 (configuration not stated)	-1.1	1	-7	1	2	-1.6	-2.6	-12	51	-1
CCC(C)(C(=O)NC1CCCC1)N(Cc1cccs1)C(=O)Cc1cccs1 (configuration not stated)	0.6	3	-1	/	/	/	1.2	1	-1	1
O=C(CN1C(=O)NC2(CCCCC2)C1=O)Nc1ccc2[nH]c(=O)[nH]c2c1	1.1	-5	-11	0	9	-0.4	-3.8	/	35	/
CCOC(=O)c1ccc(NC(=O)CSc2nnc(CNC(=O)c3ccccc3F)o2)cc1	0.5	-6	-6	1	6	-4.6	2.0	10	70	-3
CCOC(=O)N1CCN(C(=O)c2ccc3c(=O)n(-c4cc(OC)ccc4OC)c(=S)[nH]c3c2)CC1	0.7	-6	4	28	26	3.0	9.1	0	/	?
O=C(NCCCN1CCOCC1)c1ccc(CSc2ccc(Cl)cc2)cc1	0.0	-1	29	-44	-37	-7.6	-3.2	31	71	22
NS(=O)(=O)c1ccc(NC(=S)Nc2ccc(S(=O)(=O)N3CCCC3)cc2)cc1	0.8	-2	9	2	1	-2.0	2.5	1	12	8
O=C(Nc1ccccc1N1CCCCC1)c1ccc(F)c(S(=O)(=O)N2CCOCC2)c1	0.1	16	27	18	16	1.6	3.6	29	/	9
CCCc1ccc(-c2cc(NC(=O)CSc3nnc(N)s3)n(-c3ccccc3)n2)cc1	-0.9	7	-4	-9	-4	3.7	-0.8	28	/	?
O=C(c1cc(=O)[nH]c2ccccc12)N(Cc1nnc(-c2ccccc2Cl)o1)C1CC1	0.2	4	5	-3	-18	2.8	-5.3	9	70	4
Cc1csc(SCC(=O)N2CCN(S(=O)(=O)c3ccccc3)CC2)n1	-0.3	-4	4	/	/	/	-2.3	-8	-7	-5
O=S(=O)(Cc1cnc(Cl)s1)c1ccccc1	0.3	-6	12	/	/	/	-4.8	-6	-17	10
N#Cc1ccc(OCC(=O)N/N=C2\CCc3ccccc32)cc1	-0.1	1	1	/	/	/	-1.2	-8	-6	3
O=S(=O)(NCc1cn2ccsc2n1)c1ccc2c(c1)OCCO2	0.0	-2	-1	/	/	/	-0.9	-2	2	10
O=C(Nc1cccc(Cl)c1)c1ccc2ncsc2c1	-5.1	/	-11	-15	-2	2.6	-5.1	5	/	-14
O=C(Nc1nc2ccccc2[nH]1)c1cc(F)cc(F)c1	-5.9	24	11	12	15	3.2	3.9	0	0	-6
O=C(CN1CCCC1)NCc1ccccc1	0.0	/	0	2	-7	9.7	0.1	5	-1	3
COc1cccc(CC2(CO)CCCN(Cc3ccc(CN4CCCCC4)s3)C2)c1 (configuration not stated)	1.2	8	-4	15	5	2.2	-1.2	71*	/	?
CS(=O)(=O)N1CCCC(C(=O)Nc2ccc(F)cc2)C1 (configuration not stated)	0.1	-3	0	7	12	-2.8	0.4	-23	-2	-15
CN1CCC(C2(O)c3ccccc3CCc3ccccc32)CC1	0.2	-7	4	1	10	-2.7	2.5	20	10	-2
Cc1ccc(-n2c(SCC(=O)N3CCN(c4ccccn4)CC3)nnc2N2CCCC2)cc1	0.0	0	7	-12	-13	-1.6	5.3	/	-7	/
O=C1OCCC1Sc1nnc(-c2ccccc2Cl)n1Cc1ccccc1 (configuration not stated)	-0.1	-2	8	0	5	-2.9	-4.1	-12	-7	0
Cc1cc(C)c2[nH]c(=O)c(CN(CC3CCCO3)C(=O)c3cnccn3)cc2c1 (configuration not stated)	0.9	-3	-8	/	/	/	-2.2	-3	3	0
Cn1c(=O)c2c([nH]c(=O)n2C)n(Cc2ccccc2)c1=O	-0.4	-2	-5	32	22	1.5	2.7	-4	5	-2
S=c1[nH]cc(-c2ccc(Cl)cc2)n1Cc1ccccc1	-0.5	-2	4	-4	-6	-4.4	-3.0	2	4	-8
CN(CC(=O)Nc1ccc(F)cc1)C(=O)c1ccc(-c2ccc(Cl)cc2)o1	-0.6	0	-5	-1	5	-1.3	4.3	-1	-3	9
O=C(c1cc(COc2cccc(C(F)(F)F)c2)on1)N1C[C@H]2CC[C@H]1C2	-0.6	-1	-12	-28	-37	-5.2	-1.8	3	-2	-8
CCS(=O)(=O)N1Cc2ccccc2CC1C(=O)Nc1nc2ccc(C)cc2s1 (configuration not stated)	-0.4	7	-5	/	/	/	-5.4	1	-1	-2
Cc1csc(NC(=O)C2C3C=CC(O3)C2C(=O)O)n1 (configuration not stated)	-0.4	-7	1	/	/	/	-0.8	-15	98*	10
NC(=O)CSc1nnc(-c2cccnc2)n1CCc1ccccc1	0.9	-7	-1	/	/	/	2.6	-6	-4	26
CCc1sc(C(=O)Nc2ncccc2O)cc1C	1.4	-2	-1	-3	-7	-2.2	1.9	-5	74	3
Cc1ccc(NC(=O)COC(=O)C2C3CC4OC(=O)C2C4C3)cc1Cl (configuration not stated)	-0.5	/	6	-1	-3	-5.8	-5.3	-1	-10	4
Cc1cc(Cl)c(S(=O)(=O)Nc2ccc3c(c2)OCO3)cc1OCC(N)=O	-0.4	3	-5	/	/	/	1.8	3	9	2
COc1ccc(N2CCN(S(=O)(=O)c3ccc4c(c3)NC(=O)C(C)S4)CC2)cc1 (configuration not stated)	-1.3	33	-9	19	19	8.5	3.0	14	21	6
CCOc1ccc(S(=O)(=O)N2CCCC(C(=O)NC3CCCC3)C2)cc1 (configuration not stated)	-0.7	-1	-6	8	6	1.8	3.2	-2	-10	-2
Cn1c(SCC(N)=O)nnc1C1CCN(C(=O)NC2CCCCC2)CC1	-0.8	-2	-2	/	/	/	-1.1	-14	0	-8

(continued)
SMILES	Bfl-1 A1 inh	Beta apoptosis	B2AR ag	Ecoli rRNA inh	Ecoli rRNA inh OD600	Ecoli rRNA inh RFP	LANA-H2A inh	T cruzi inh	ALR H2O2 inh	Calb FLC
COc1cccc(N2C(=NC(=O)CCC3CCCC3)SC3CS(=O)(=O)CC32)c1 (configuration not stated)	-0.4	-11	-1	-8	11	-2.9	3.9	3	0	-1
CCn1cc(C(=O)N(CCCN2CCOCC2)Cc2ccco2)c(=O)c2ccc(C)nc21	0.0	-15	-3	/	/	/	-11	3	-10	-6
O=C1CC(N2CCN(c3ccccn3)CC2)C(=O)N1CC(c1ccccc1)c1ccccc1 (configuration not stated)	0.3	-1	3	/	/	/	2.4	10	-11	11
COc1cc(OC)cc(Oc2ccc(S(=O)(=O)N3CCCCC3)cc2[N+](=O)[O-])c1	-0.9	2	3	-1	0	-0.9	1.8	36	-2	4
CCN(C(=S)NCCOC)c1cccc2ccccc12	0.5	1	3	1	-9	0.4	0.4	-11	/	14
CCOc1ccccc1N1CN(Cc2ccccc2)CNC1=S	1.1	-9	2	6	1	6.1	-0.3	-13	-7	-31
CCOC(=O)Cn1nc(-c2ccc(Cl)cc2)cc1N	-0.1	/	13	/	/	/	0.0	1	-27	-5
CNS(=O)(=O)c1cccc(C(=O)OCc2csc(-c3ccccc3)n2)c1	-0.7	6	1	/	/	/	-3.6	-4	?	-1
COc1ccc(CCNC(=O)C2CCN(S(=O)(=O)c3ccc(-n4cnnn4)cc3)CC2)cc1OC	1.1	-1	-3	/	/	/	1.8	-1	-3	-2
CCN(C(=O)COC(=O)C1CCN(S(=O)(=O)c2cccs2)CC1)c1ccccc1	1.5	-1	-1	-17	-18	-1.9	-1.9	-10	-19	11
COCCCNC(=S)Nc1cc(C)c(C)cc1C	0.1	-1	0	/	/	/	1.5	-24	11	-4
CCOC(=O)c1ccc(NC(=O)c2cc(=O)[nH]c3ccccc23)cc1	-0.2	-5	-10	15	6	2.2	0.9	-9	1	-4
OCCC1CN(Cc2cccnc2)CCN1CCc1ccccc1 (configuration not stated)	0.9	/	-4	19	1	2.5	4.0	15	1	-15
CCOc1ccc(CNC(=O)CCCC(=O)n2nc(C)c3ccccc32)cc1	/	/	-10	1	7	-3.6	/	-5	-9	?
NC(=O)COC(=O)C1CSC2(c3ccc(F)cc3)CCC(=O)N12 (configuration not stated)	-0.2	4	10	4	8	-3.5	2.8	-2	/	-2
CCOC(=O)CCc1c(C)c2ccc(OCc3ccc([N+](=O)[O-])cc3)cc2oc1=O	0.7	1	-2	/	/	/	-3.0	-4	-6	25
CC1(C)N=C(N)N=C(N)N1c1cccc(C(=O)O)c1	0.3	-4	11	/	/	/	0.2	-16	-1	2

Screening data from PubChem.
